# From PubChem BioAssay
# HPGD inh = HPGD (human) dehydrogenase inhibition. AID 894. purified HPGD, NADH fluorescence kinetic, PGE2 substrate. Potency, µM, for the others: top-dose activity change, negative = inhibition, hits mostly inhibitors. 150,000 compounds, 4.3% hits. P15428; active = well fitted inhibition curve with a large enough effect (not every such curve was filed as active); inconclusive = small, poorly fitted or top-dose-only effect, or another doubt; inactive = no such curve, though single readings can be large or run the other way;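 further: top concentration of the series not given in the record; plate controls included wells without enzyme; inactives centre near -10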
# Target sequence (P15428 whole entry, looked up): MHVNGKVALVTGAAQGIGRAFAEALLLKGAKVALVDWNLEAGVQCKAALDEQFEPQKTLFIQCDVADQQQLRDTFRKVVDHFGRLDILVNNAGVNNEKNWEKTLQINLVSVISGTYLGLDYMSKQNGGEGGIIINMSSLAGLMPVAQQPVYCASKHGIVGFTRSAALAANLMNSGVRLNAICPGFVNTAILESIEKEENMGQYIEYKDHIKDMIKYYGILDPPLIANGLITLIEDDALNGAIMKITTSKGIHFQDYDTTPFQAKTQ
#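 20 nM HPGD preincubated 15 min at room temperature with compound in 50 mM Tris-HCl pH 8, 0.01% Tween 20. Started with 1 mM NAD+ and 30 uM prostaglandin E2; NADH fluorescence (360/450 nm) read 5 times over 30-s intervals, last minus first.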
# * marks the source's active call; other numbers are inactive results; ? = inconclusive; & = joins results of further samples. On the % scale 0 is the no-effect control and ±100 the full control effect; potency means the concentration at half of the fitted maximal effect. These rows are one share of the data; the hit share may differ from the screen's.
structure	HPGD inh
CCCCC1(Cc2ccc(OC)c([N+](=O)[O-])c2)C(=O)N(c2ccccc2)N(c2ccccc2)C1=O	-10%
O=C(NC(=O)N1CCN(c2ccccc2F)CC1)c1ccccc1	-10%
CC(=O)N/C(=C\c1ccccc1)C(=O)OCC(=O)N(C)C1CCCCC1	-1%
COc1ccccc1O	0%&-5%&-4%
COc1cc(OC)c(C2SCCN2S(=O)(=O)c2ccc(F)cc2)cc1OC (stereo not given)	-15%
O=C(c1cc([N+](=O)[O-])ccc1N1CCCCC1)N1CCc2ccccc21	-5%
O=C(Nc1ccc(Cl)c(C(F)(F)F)c1)N1CCCC(O)C1 (stereo not given)	-12%
O=C(CSc1nc2ccc(NC(=O)C3CCCCC3)cc2s1)NCC1CCCO1 (stereo not given)	28µM*
O=C(NC1CCCC1)C(c1cccs1)N(CC1CCCO1)C(=O)Cc1cccs1 (stereo not given)	-3%
CCCN(CC(=O)Nc1ccc(Cl)cc1Cl)C(=O)/C=C/c1ccco1	-3%
CCOc1cccc(=O)c2c(C)oc(C)c12	-14%
O=C(CCN1C(=O)c2ccccc2C1=O)Nc1cccc(S(=O)(=O)N2CCCCC2)c1	-6%

# The last 5 compounds of the part before are carried over, then new ones follow:
structure	HPGD inh
O=C(CSc1nc2ccc(NC(=O)C3CCCCC3)cc2s1)NCC1CCCO1 (stereo not given)	28µM*
O=C(NC1CCCC1)C(c1cccs1)N(CC1CCCO1)C(=O)Cc1cccs1 (stereo not given)	-3%
CCCN(CC(=O)Nc1ccc(Cl)cc1Cl)C(=O)/C=C/c1ccco1	-3%
CCOc1cccc(=O)c2c(C)oc(C)c12	-14%
O=C(CCN1C(=O)c2ccccc2C1=O)Nc1cccc(S(=O)(=O)N2CCCCC2)c1	-6%
C=CCn1c(SCCCC)nc(O)cc1=O	-1%
COC(=O)C1=C(Nc2ccc(OC)cc2)C=C(C)C(C(=O)OC)C1c1ccc(C)cc1 (stereo not given)	-26%
COc1ccc(S(=O)(=O)N2CCCCC2)cc1NC(=O)CSc1ncnc2ccccc12	-24%
Cc1nn(-c2ccc(F)cc2)c(C)c1NS(=O)(=O)c1ccc(Cl)cc1	-17%
O=C(c1ccc2c(c1)OCO2)N(c1ccc(Cl)cc1)C1C=CS(=O)(=O)C1 (stereo not given)	3%
CCc1ccc(OCC(=O)N(C)C)c(Br)c1	-7%
CCOc1cccc(N2C(=O)CC(N3CCN(c4nc5ccccc5s4)CC3)C2=O)c1 (stereo not given)	-4%
COc1ccc(-c2nsc3c(N4CCCCC4)ncnc23)cc1	?
O=C(Nc1cccn(Cc2c(Cl)cccc2Cl)c1=O)c1ccccc1Cl	?
C[N+](C)(C)CCCCCNCC12CC3CC(CC(C3)C1)C2	-1%
CCn1c(CNc2ccc(C(=O)O)cc2)nc2ccccc21	-6%
Cc1nn(-c2ccccc2)c2c1C1(C(=O)N(C(C)C)c3ccccc31)C(C#N)=C(N)O2 (stereo not given)	-6%

# Later entries:
structure	HPGD inh
O=C(Cn1cccc1)N1CCN(c2ccc(F)cc2)CC1	-2%
Cc1ccccc1C(=O)Oc1ccccc1N1C(=O)C2CC=CCC2C1=O (stereo not given)	-15%
O=C(CN1C(=O)C2C3C=CC(C4CC34)C2C1=O)OCC(=O)c1ccccc1 (stereo not given)	?
CCN(CC)C(=O)c1sc(NC(=O)Cc2ccc(OC)cc2)c(C#N)c1C	-18%
CC(C)OC(=O)c1c2c(n3ccccc13)C(=O)c1ccccc1C2=O	-13%
Cc1ccc(Nc2ccc(C(=O)O)cc2N)cc1	-19%
NC(=O)c1c(NC(=O)CSc2nnc(-c3ccco3)n2-c2ccccc2)sc2c1CCC2	28µM*
CN1CCN(S(=O)(=O)c2ccc(NC(=O)c3csc4ccccc34)cc2)CC1	-7%
COc1ccc2ccccc2c1CN1CCN(Cc2ccccc2)CC1	-6%
Cc1ccc(-c2nn(-c3ccccc3)cc2CSC(=N)N)cc1	-9%
CCN1CCC(=NNC(=O)c2ccco2)CC1	-14%
O=[N+]([O-])c1cccc(/C=C/c2nc3ccc([N+](=O)[O-])cc3[nH]2)c1	-5%

# Overlap with the part before: 3 entries, then new ones.
structure	HPGD inh
Cc1ccc(-c2nn(-c3ccccc3)cc2CSC(=N)N)cc1	-9%
CCN1CCC(=NNC(=O)c2ccco2)CC1	-14%
O=[N+]([O-])c1cccc(/C=C/c2nc3ccc([N+](=O)[O-])cc3[nH]2)c1	-5%
c1ccn(-c2ccc(N3CCOCC3)cc2)c1	-29%
COC(=O)CSc1ncnc2c1cnn2Cc1ccccc1	-19%
O=S1(=O)c2ccccc2N=NN1Cc1ccc(Cl)c(Cl)c1	5.6µM*
c1nc(NC2CCNCC2)c2cc(-c3ccc4c(c3)OCO4)ccc2n1	-11%
Cc1occc1C(=O)Nc1sc2c(c1C(N)=O)CCC(C(C)(C)C)C2 (stereo not given)	?
CCc1ccccc1NC(=O)N1C2CCCC1CC(NC(C)=O)C2 (stereo not given)	0%
CCS(=O)(=O)N1CCN(C(=O)c2cccc(OC)c2)CC1	-3%
CC(=O)c1cccc(N(CC(=O)N2CCCC2)S(C)(=O)=O)c1	0%
COC(=O)CN1C(=S)N(C)C(=O)C1CC(=O)Nc1ccccc1 (stereo not given)	-3%
CCOC(=O)N1CCN(C(=O)CN(C2CCCCC2)S(=O)(=O)c2ccc(F)cc2)CC1	-12%
O=C(O)CN1CCN(Cc2ccccc2Cl)C1=O	-5%
O=C(CN1C(=O)CSC1=O)Nc1ccc(C(=O)O)cc1	-17%

# (continued)
structure	HPGD inh
Cc1cc(C(=O)NCc2ccc(S(N)(=O)=O)cc2)ccc1[N+](=O)[O-]	-7%
COc1cccc(C(=O)N(Cc2ccc(N(C)C)cc2)C2CCS(=O)(=O)C2)c1 (stereo not given)	-7%
CCCCCCCOc1ccc(OC(=O)c2cccnc2)cc1	-8%
Cc1ccc(OCC(=O)NNC(=O)C(C)Sc2ncnc3sc(C)c(C)c23)cc1 (stereo not given)	32µM*
N#CC1=C2SCN(Cc3ccco3)CN2C(=O)CC1c1ccccc1F (stereo not given)	18µM*
COCCn1c(=O)[nH]c2cc(C(=O)NCCN3CCN(c4ccccc4F)CC3)ccc2c1=O	-14%
Cc1[nH]n(-c2cccc(Cl)c2)c(=O)c1/C=N/n1c(C)nc2ccccc2c1=O	-21%
Cc1onc(-c2c(F)cccc2Cl)c1C(=O)Nc1nc2ccccc2[nH]1	-12%
CC(C(N)=O)N1C(=O)c2cccc3cccc1c23 (stereo not given)	-16%
COCCn1nnnc1CN(CCc1ccccc1)Cc1cc2ccc(C)cc2[nH]c1=O	-4%
Cc1cccc(N(C(=O)c2csnn2)C(C(=O)NC(C)(C)C)c2cccs2)c1 (stereo not given)	-6%
Cc1c(Cl)cccc1NC(=O)CN1CCC(NC(=O)C2CCCCC2)CC1	-11%

# Additional structures
structure	HPGD inh
CCn1nnnc1-c1ccc(OC)c(S(=O)(=O)NCCc2ccccc2)c1	-11%
Cc1ccccc1C(=O)NC(NC(=S)Nc1ccc(S(N)(=O)=O)cc1)C(Cl)(Cl)Cl (stereo not given)	-1%
Cc1cc(C)nc(SCc2nnc(SCC(=O)Nc3nccs3)n2Cc2ccco2)n1	-13%
CC(C)=CCNc1ncnc2c1c(C#N)cn2[C@H]1O[C@@H](CO)[C@@H](O)[C@@H]1O	-5%
CN(C)c1cccc(NC(=O)CCc2ccccc2)c1	-23%
CC(C)(C)P(=O)(CO)c1ccccc1 (stereo not given)	-5%
CN(C)c1nc(N)nc(CSc2nnnn2-c2ccc(F)cc2)n1	-3%
COC(=O)c1ccc(Sc2ccccc2NS(=O)(=O)c2ccc(OC)cc2)nc1	0%
COc1ccc(OCC(O)CNC(=O)c2ccccc2C(=O)O)cc1 (stereo not given)	-9%
Cc1ccc(N/C(CSC(N)=O)=N\S(=O)(=O)c2ccc(C)cc2)cc1	-5%
Cn1c(CNC(=O)c2ccco2)nnc1SCC(=O)N1c2ccccc2Sc2ccccc21	1%
COc1ccc(S(=O)(=O)N(C)CC(=O)N2CCN(C)CC2)cc1C	-7%

# Further compounds
structure	HPGD inh
Cc1cc(OCCN2CC(C)OC(C)C2)ccc1[N+](=O)[O-] (stereo not given)	-14%
Cc1ccccc1-c1ccc(C(=O)Nc2cccc(F)c2)o1	-13%
CC(=O)N1CCc2cc(S(=O)(=O)NCCN3CCC(C)CC3)ccc21	-3%
N#Cc1cc2c(nc1SCC(=O)Nc1sc3c(c1C#N)CCC3)CCCCC2	?
COc1ccc(N(C)C(=O)CC2(CC(=O)O)CCCCC2)cc1	-12%
CCOC(=O)CCSc1nnc(-c2cccnc2)n1-c1ccccc1OC	-23%
Cc1occc1C(=O)Nc1cc(=O)n(C)c(=O)n1C	-3%
CC(C)(C)C(=O)N1CCC(O)(CS(=O)(=O)Cc2ccc(Cl)cc2)CC1	1%
O=C1/C(=C/c2cccnc2)SC(=S)N1Cc1ccco1	-14%
CSCCC(NC(=O)C1CCC(C)CC1)C(=O)O (stereo not given)	-7%
CCOC(=O)CSc1ncnc2c1c(-c1ccccc1)cn2-c1ccc(OC)cc1	?
c1ccc2c(c1)NC1(CCCCCC1)n1c-2nc2ccccc21	?

# More entries follow.
structure	HPGD inh
CC(C)(C)N(C=C(Cl)Cl)C(=O)NC1CCCCC1	-5%
C=CCn1c(C)cc(C(=O)COC(=O)c2ccc(N)c([N+](=O)[O-])c2)c1C	-9%
C=C(C)CNC(=S)N/N=C/C1=CCC2CC1C2(C)C (stereo not given)	-7%
Cn1cccc1-c1nc2ccc(NC(=O)c3ccccc3)cc2[nH]1	-10%
Cc1sc2c(c1C)C(=O)NC(c1cccc(O)c1)N2 (stereo not given)	-22%
Cc1ccc(Cl)cc1NC(=O)Cn1cc2c(n1)CCCC2	-10%
Cc1ccc(Cl)cc1-n1c(=O)cc(N2CCN(C(=O)c3ccco3)CC2)[nH]c1=O	9%
CNC(=O)C1CC(=O)N(CCCc2ccccc2)C(=Nc2ccccc2)S1 (stereo not given)	0%
C=CCC(NCc1ccco1)c1ccc(OC)c(OC)c1 (stereo not given)	-4%
O=C(c1ccccc1-c1nc2ccccc2[nH]1)N1CCCCC1	-1%
Cc1cccc(OCc2nc(C)cc(=O)[nH]2)c1	-16%
CC(C)CN1CC2(CCN(S(=O)(=O)c3ccccc3)CC2)C1	-8%

# Additional records.
structure	HPGD inh
Cc1ccc(C(=O)Nc2nccc(-c3cccs3)n2)cc1	-13%
CC1CCN(C(C(=O)Nc2ccc(C(C)C)cc2)c2ccc3c(c2)OCO3)CC1 (stereo not given)	-30%
Cc1ccc(-n2c(C)cc(/C=N/Nc3ccc([N+](=O)[O-])cn3)c2C)cc1	-5%
CN1CCN(C(=O)c2ccc(C3SCC(=O)N3Cc3ccco3)cc2)CC1 (stereo not given)	13µM*
CS(=O)(=O)Nc1ccc(C2=NN(S(C)(=O)=O)C(c3ccccc3)C2)cc1 (stereo not given)	?
O=C(COc1ccccc1)NCCc1cn2ccsc2n1	-13%
CCN1C(=O)N/C(=C/c2ccc(Sc3ccc(C)cc3)o2)C1=O	?
COCc1cc(C)nc(OCC(=O)N/N=C/c2cccc(OC)c2)c1C#N	?
Cn1c(=O)c2c(nc(N3CCCCCC3)n2CC(O)COc2ccccc2)n(C)c1=O (stereo not given)	-9%
COc1ccc2c(c1)C1C=CCC1C(c1cc3c(cc1Br)OCO3)N2 (stereo not given)	-7%
Cc1[nH]ccc(=O)c1OCc1c(Cl)cccc1Cl	1%
Cc1ccc(-c2cc3nc(-c4ccccc4)cc(N)n3n2)cc1	?

# (further entries)
structure	HPGD inh
CCc1ccc(C2CC(c3ccc(C)cc3)Nc3nc(N)nn32)cc1 (stereo not given)	-12%
Cc1cc(-c2ccccc2)nc(N/N=C/c2ccco2)n1	-8%
CCOC(=O)c1c(C)c(C(=O)NCCN2CCOCC2)c(C)n1CC	-10%
CC(C)C(NC(=O)OCc1ccccc1)C(=O)NC1CCCCC1 (stereo not given)	-8%
CC(C)(C)c1ccc(C(=O)N/C(=C/c2cccs2)C(=O)NCc2ccco2)cc1	5%
COc1ccc2c(c1)O[C@H](c1ccc3c(c1)OCO3)[C@@H](OC(=O)NS(=O)(=O)c1ccc(F)cc1)C2=O	-7%
CC(=O)Nc1ccccc1-c1nc2ccccc2nc1OCC(=O)c1ccc(Cl)cc1	-8%
CCOC(=O)N1CCN(Cc2cc(=O)oc3cc4c(cc23)CCC4)CC1	-16%
COc1ccc(OC)c(-c2cc(C(=O)N3CCN(c4ncccn4)CC3)c3ccccc3n2)c1	-9%
CC(=O)Nc1ccc(OCC(=O)NC(C)C(C)C)cc1 (stereo not given)	-6%
COc1cc(C2c3c(oc4ccc(Cl)cc4c3=O)C(=O)N2Cc2ccco2)cc(OC)c1OC (stereo not given)	0%
O=C(CSC1=NCCS1)Nc1ccc(S(=O)(=O)N2CCCCCC2)cc1	?

# Later entries.
structure	HPGD inh
COc1ccccc1CNC(=O)CNCC1CCCO1 (stereo not given)	-12%
COc1ccc(NC(=O)CN2CCN(S(=O)(=O)c3ccc(Cl)cc3)CC2)cc1	-3%
N#CCCN(Cc1cccnc1)C(=O)c1sc2cc(F)ccc2c1Cl	7.1µM*
C=CCc1c(C)nc(SCc2nc3ccccc3c(=O)[nH]2)[nH]c1=O	2.8µM*
COc1ccc(NC(=O)c2cccc(NC(=O)c3ccco3)c2)c(OC)c1	-17%
CCC(=O)Nc1ccccc1N1CCN(S(C)(=O)=O)CC1	0%
